Ecoli growth = blocks Escherichia coli growth. OD600, 23 h; hits give low values. OD600 absorbance (no concentration beside the values). 0.21% of 330,000 active. AID 1053175;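 active means OD600 absorbance below the run mean of sample wells minus 3.6 SD, in any replicate, cut at about 0.56 in these data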;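 further: stock transfer was 300 nL into about 60 µL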
UCH37 inh = blocks the human deubiquitinase UCH37; Q9Y5K5; purified proteasome/UCH37, Ub-AMC cleavage fluorescence; inhibition, % (no concentration beside the values); 0.33% of 330,000 active; AID 588478;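 active means mean of two replicates above 20%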;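 further: 0% = compound-free wells with enzyme and 100% = wells lacking proteasome; stock transfer was 100 nL into about 20 µL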
Target sequence (Q9Y5K5 whole entry, looked up): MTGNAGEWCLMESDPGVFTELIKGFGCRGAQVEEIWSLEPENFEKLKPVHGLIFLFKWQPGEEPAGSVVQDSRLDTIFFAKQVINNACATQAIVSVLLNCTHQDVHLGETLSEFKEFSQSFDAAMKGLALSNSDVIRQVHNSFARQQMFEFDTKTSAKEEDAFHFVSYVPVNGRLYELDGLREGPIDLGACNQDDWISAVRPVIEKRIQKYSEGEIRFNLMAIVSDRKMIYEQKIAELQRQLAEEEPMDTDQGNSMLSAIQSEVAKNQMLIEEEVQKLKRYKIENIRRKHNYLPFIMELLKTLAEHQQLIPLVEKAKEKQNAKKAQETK
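Assay system: Proteasome-bound UCH37. Buffer or medium: pH 7.4 Tris-HCl (50 mM) with ovalbumin, ATP-MgCl2, DTT. Incubation: 30 min preincubation with enzyme, 25 min cleavage at room temperature. Measured by: fluorescence, ex 355 nm, em 460 nm. Read-out basis: percent inhibition. Control set: wells without proteasome as full block, compound-free enzyme plus substrate as uninhibited.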
HNF4A DNA FP = change in binding of human HNF4 alpha to DNA. P41235. HNF4a-FITC DNA binding, fluorescence polarization, 1 h. 0.3% of 360,000 active. AID 1224865. activity change, % at 10 µM; in the data active means activity change above about 30%, passing the limit was not always enough;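 further: controls were the assay level and a saturating level of protein; the project sought stronger binding though the title names inhibitors; some compounds called inactive have numbers as strong as hits; positive values seem to mean higher polarization but the record does not say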
Target sequence (P41235 whole entry, looked up): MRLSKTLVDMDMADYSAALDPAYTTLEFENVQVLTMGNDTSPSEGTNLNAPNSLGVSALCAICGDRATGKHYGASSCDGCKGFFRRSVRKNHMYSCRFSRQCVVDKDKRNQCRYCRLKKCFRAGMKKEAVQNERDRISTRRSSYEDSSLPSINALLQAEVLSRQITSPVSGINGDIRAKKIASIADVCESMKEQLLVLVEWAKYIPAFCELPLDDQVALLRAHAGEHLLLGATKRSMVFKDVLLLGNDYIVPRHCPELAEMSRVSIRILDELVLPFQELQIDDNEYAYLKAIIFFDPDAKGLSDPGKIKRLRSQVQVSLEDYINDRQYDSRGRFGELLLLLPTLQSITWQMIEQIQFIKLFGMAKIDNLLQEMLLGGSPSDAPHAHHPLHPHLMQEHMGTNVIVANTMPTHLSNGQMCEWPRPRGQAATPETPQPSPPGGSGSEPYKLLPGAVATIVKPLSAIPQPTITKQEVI
* marks the source's active call; other numbers are inactive results; / = no result given. These rows are one share of the data (hit frequency here may not be typical).

SMILES	Ecoli growth	UCH37 inh	HNF4A DNA FP
COc1cccc(CNC(=O)[C@@H]2CCCN2C(=O)OC(C)(C)C)c1	/	/	2.1
CC(C)(C)NC(=O)C(c1ccncc1)n1c(=O)c(-c2cc3ccccc3[nH]2)nc2ccccc21 (stereo not given)	/	/	0.2
COC(=O)[C@]12CCCCC=C1N(Cc1cccc3ccccc13)C(=O)[C@H](CC(=O)N1CCSCC1)C2	/	/	-3.6
CC(=O)c1cccc(NC(=O)C2Cc3c(-c4ccco4)ccnc3O2)c1 (stereo not given)	/	/	2.0
COC(=O)[C@@]12C[C@@H](CC(=O)NCCC(C)C)C(=O)N(CCc3ccc(OC)c(OC)c3)C1=CCC(C)(C)C2	/	/	-2.1
CCCCCCCCN1C(=O)[C@H](CC(=O)N2CCCCC2)C[C@@]2(C(=O)OCC)CCCC=C12	/	/	0.5
CCc1nc2ccc(C(=O)NCCN3CCNC3=O)cn2c1N(CCC(C)C)CCN(C)C	/	/	-2.7
O=C(CSc1nnc(-c2cccnc2)o1)Nc1ccc(F)cc1	/	/	0.9
Cc1cc(C)c(C#N)c(Sc2nc(C)c([N+](=O)[O-])c(C)c2C#N)n1	/	/	1.6
Cc1cc(Cl)ccc1OCC(=O)OCC(=O)Nc1ccc(Cl)cn1	/	/	-0.4
CCc1nc2ccc(C(=O)NCc3ccccc3OC)cn2c1N(C=O)CCC(C)C	/	/	0.0
CC(C)(C)CN1C(=O)C(=O)NC[C@@H]1CC1CCCCC1	/	/	-2.4
COc1ccccc1Cc1c(-c2ccco2)nc2cc(C)c(Br)c(C)n12	/	/	4.8
CC(C)N(C)c1ncnc2c1ncn2[C@H]1CN(Cc2ccc(F)cc2)C[C@@H](CO)O1	/	/	-3.5
Cc1cc2nc(-c3cccc(Br)c3)c(Cc3ccccc3)n2c(C)c1Br	/	/	4.2
O=C1NC[C@H](CCCCN2C[C@@H](Cc3ccccc3)N(CCC3CCCCC3)C(=O)C2=O)N(CCC2CCCCC2)C1=O	/	/	0.1
COc1cccc(CN2CCC(C)(Oc3cccc(Cl)c3)C2)c1OC (stereo not given)	/	/	0.4
C[C@H]1CN([C@@H](C)CO)C(=O)CCCn2nncc2CO[C@@H]1CN(C)S(=O)(=O)c1ccc2ccccc2c1	/	/	-4.0
CC(=O)c1cccc(-c2ccnc3c2CC(C(=O)Nc2cccc(C(F)(F)F)c2)O3)c1 (stereo not given)	/	/	-0.2
CC1(c2nnnn2C2CCCC2)CCC(=O)N1c1ccc2c(c1)OCCO2 (stereo not given)	/	/	3.7
CCNC(=O)C1(C)CCN(C(=O)CCc2ccccc2)C1 (stereo not given)	/	/	3.2
COc1ccc(CNC(=O)N2CCc3nc(Nc4cc(OC)c(OC)c(OC)c4)ncc3C2)cc1	/	/	-3.6
C[C@@H](c1ccccc1)N1C[C@H](COCc2ccccc2)Oc2cc(N3CCC[C@H]3C(N)=O)ccc2S1(=O)=O	/	/	-0.1
COC(=O)c1ccc(CC2(C)C(=O)Nc3ccc(-c4cccc(C(F)(F)F)c4)cc32)o1 (stereo not given)	/	/	-1.4
COc1ccc2c(c1)CCO[C@]21O[C@H](CCO)C[C@H](O)[C@H]1O	/	/	-1.4
O=C(Nc1ccc(Cl)c(C(F)(F)F)c1)C1Cc2c(-c3ccccc3)ccnc2O1 (stereo not given)	/	/	4.9
O=C1CCCN1CCCNc1nc(NCc2cccs2)nc2ccsc12	/	/	-0.7
C[C@@H]1CN([C@@H](C)CO)S(=O)(=O)c2ccc(Br)cc2O[C@@H]1CN(C)C(=O)c1ccccn1	/	/	-3.8
COc1ccc(S(=O)(=O)N2CCCOC2CNC(=O)C(=O)NCc2ccccc2C)cc1 (stereo not given)	/	/	0.5
CCCC(=O)N1CCCC(c2cc(C(=O)Nc3ccccc3)no2)C1 (stereo not given)	/	/	-6.3
C[C@@H]1CN([C@@H](C)CO)C(=O)CCCn2nncc2CO[C@H]1CN(C)C(=O)C1CC1	/	/	-3.0
CNc1cccc(-c2cc(OC)ccc2OC)n1	/	/	2.7
CCCCN(C=O)c1c(CC)nc2c(OCc3ccccc3C(=O)OC)cccn12	/	/	2.8
CCc1nc2ccc(C(=O)Nc3cccc(OCC(=O)N(C)C)c3)cn2c1N(C)C(=O)c1cccc(OC)c1	/	/	3.9
CC(=O)Nc1ccc(-c2ccnc3c2CC(C(=O)Nc2cccc(C(C)=O)c2)O3)cc1 (stereo not given)	/	/	0.7
COC(=O)[C@@]1(C(C)C)N=C(c2cc(OC)c(OC)c(OC)c2)[C@]2(O1)C(=O)N(C)c1ccc(Cl)cc12	/	/	6.7
O=C(NCc1ccccc1)[C@@H]1CCCN1C(=O)[C@@H]1CCCN1C(=O)c1ccc(Cl)cc1Cl	/	/	-3.0
COc1cccc(Nc2nc(C(N)C3CCCCC3)cs2)n1 (stereo not given)	/	/	3.4
Cc1cccc(-c2cnc3cccnn23)c1	/	/	-0.1
O=C(CC[C@H]1O[C@@H](n2ccc(=O)[nH]c2=O)[C@H](O)[C@@H]1O)NCc1ccccc1	/	/	-0.1
OC(c1ccc(Cl)c(Cl)c1)c1ncc(-c2ccc(Cl)cc2)[nH]1 (stereo not given)	/	/	1.3
Nc1[nH]c(C(=O)c2ccccc2)c(-c2ccc(Cl)cc2Cl)c1C(=O)NCCc1c[nH]c2ccccc12	/	/	3.5
COC(=O)N1CCCC(c2cc(C(=O)Nc3ccccc3Cl)no2)C1 (stereo not given)	/	/	2.1
COCCN1C[C@@H](CO)O[C@@H](n2cnc3c(N(C)C)ncnc32)C1	/	/	1.8
Fc1ccc2nc(-c3ccccc3)ccc2c1	/	/	-0.3
OC(c1cccc(Cl)c1)c1ncc(-c2ccc(C(F)(F)F)cc2)[nH]1 (stereo not given)	/	/	1.0
O=S(c1cc(Cl)cc(Cl)c1O)c1cc(Cl)cc(Cl)c1O	/	/	4.7
COc1ccc(NC(=O)C2(C)Cc3c(-c4ccc(N(C)C)cc4)ccnc3O2)cc1OC (stereo not given)	/	/	-1.7
Cc1cc(C)cc(CC(=O)N2CCC2(C)C(=O)NS(=O)(=O)Cc2ccccc2)c1 (stereo not given)	/	/	0.8
CC1=C(C(=O)N2CCCCCC2)CC(CC(=O)NC2CCCCC2)C(=O)N1Cc1ccccc1 (stereo not given)	/	/	-3.9
CC(C)(C)c1nn2cnnc2n(N=Cc2ccccc2)c1=O	0.71	7.6	/
CC1CC2=C(CC1C=NNC(N)=S)C(C)(C)CCC2 (stereo not given)	0.66	1.9	/
O=C(NN=Cc1cccc(Br)c1)c1ccccc1-n1cccc1	0.75	2.4	/
COc1ccc(N(CC(=O)NN=Cc2cccc(OC)c2OC)S(=O)(=O)c2ccccc2)cc1	0.63	1.0	/
CCOC(=O)c1c(-c2ccccc2)csc1N=CC1C(=O)CCCC1=O	0.69	-22	/
Cc1nc2ccccc2cc1C(=O)NN=Cc1ccco1	0.68	-3.8	/
CCC(C=NNC(=O)c1ccccc1F)CC	0.62	1.9	/
Nc1nnnn1N=Cc1cc(Br)ccc1O	0.66	6.6	/
COc1ccc(C=NNC(=O)c2ccco2)cc1Cn1nc(C)c([N+](=O)[O-])c1C	0.72	6.5	/
Cc1cc(C(=O)NN=Cc2ccc(-c3ccc(C)c(Cl)c3)o2)n[nH]1	0.63	-288	/

Part of the list above, limited to HNF4A DNA FP and UCH37 inh:
SMILES	HNF4A DNA FP	UCH37 inh
COc1ccc(NC(=O)C2(C)Cc3c(-c4ccc(N(C)C)cc4)ccnc3O2)cc1OC (stereo not given)	-1.7	/
Cc1cc(C)cc(CC(=O)N2CCC2(C)C(=O)NS(=O)(=O)Cc2ccccc2)c1 (stereo not given)	0.8	/

Additional structures follow:
SMILES	Ecoli growth	UCH37 inh	HNF4A DNA FP
CC(=NN1CCN(Cc2ccc(C)cc2)CC1)c1ccco1	0.69	-0.3	/
Cc1ccc(C=NNC(=O)COc2ccccc2-c2ccccc2)cc1	0.68	0.1	/
O=S(=O)(N=C(NS(=O)(=O)c1ccccc1)c1ccccc1)c1ccccc1	0.65	1.8	/
Cn1cc(C(=O)NN=CC2=C(N3CCOCC3)/C(=C\c3ccccc3)CC2)ccc1=O	0.69	10.0	/
Cc1ccccc1C=Nn1c(COc2ccccc2)n[nH]c1=S	0.7	3.1	/
CC(=NO)C(C)(C)Nc1cccc(F)c1	0.66	3.2	/
Cc1csc(C(C#N)=NO)n1	0.69	6.0	/
O=C(Cc1ccccc1)NN=Cc1cccc([N+](=O)[O-])c1	0.7	0.9	/
Cc1ccc(C=NNC(=O)c2cccc(S(=O)(=O)Nc3ccccc3Cl)c2)s1	0.62	5.0	/
O=C(NN=Cc1ccco1)C1CCCC1	0.66	-0.6	/
CCCc1c(C(=O)NN=C(C)CCc2ccccc2)nnn1-c1nonc1N	0.7	4.7	/
COc1ccc(C(C)=N/N=C2/NC(=O)CC(C(=O)O)S2)cc1 (stereo not given)	0.7	7.6	/
Clc1cccc(NN=Cc2ccc(N3CCOCC3)s2)c1	0.64	-7.2	/
CCN(CC)Cc1c(C(=O)NN=Cc2cccc(OCc3ccc(F)cc3)c2)nnn1-c1nonc1N	0.7	2.2	/
Cc1[nH]n(-c2ccccc2)c(=O)c1C=Nn1c(C)nc2ccccc2c1=O	0.68	4.5	/
Cc1ccc(OCC(=O)NN=C/C=C/c2ccco2)cc1	0.71	4.2	/
COc1ccc2c(c1)CCC2=NOC(=O)c1ccccc1C	0.69	0.2	/
COCCn1c(C)cc(C=NNC(=O)c2cccnc2)c1C	0.65	9.2	/
COC(=O)C(C(C)=O)C1=CC(=NS(=O)(=O)c2ccc(C)cc2)c2ccccc2C1=O (stereo not given)	0.72	0.0	/
CN1CCN(N=Cc2ccc(-c3ccccc3)cc2)CC1	0.65	3.6	/
S=c1[nH]nc(C2CCCCC2)n1N=Cc1ccccc1	0.67	2.1	/
COc1ccc(OC)c(C=NN2CCN(c3ccc(Cl)cc3)CC2)c1	0.69	2.3	/
Cc1ccc(OCC(=O)NN=Cc2c(C)n(C)c3ccccc23)c([N+](=O)[O-])c1	0.71	3.3	/
COc1ccc(C(=NO)C(=NO)c2ccc(OC)cc2)cc1	0.7	2.5	/
CCCC1SC(=NN=Cc2ccc(C)cc2)N(Cc2ccc(OC)cc2)C1=O (stereo not given)	0.71	-0.3	/
CCN(CC)c1ccc(C(=O)NN=C(C)c2cccc(OC)c2)cc1	0.7	6.2	/
CSCC[C@H](NC(=O)C1CCC(CNC(=O)[C@@H](N)Cc2ccccc2)CC1)C(=O)O (stereo not given in full)	0.64	1.9	/
C(=Nn1cnnc1)c1cccn1-c1ccccc1	0.63	6.0	/
S=c1[nH]nc(-c2ccccn2)n1N=Cc1ccco1	0.66	3.8	/
CCCCCCN(C(=O)CCCCCN1C(=O)NC(c2ccc(-c3ccccc3)cc2)C(C(=O)OCc2ccccc2)=C1C)C(C(=O)NCCCC)c1ccc(-c2ccccc2)cc1 (stereo not given)	0.72	2.7	/
Cc1ccccc1OCc1nc2ccccc2c(=O)n1N=Cc1c[nH]c2ccccc12	0.74	1.1	/
O=C1CSC(=NN=Cc2ccccc2)N1c1ccc(O)cc1	0.67	3.9	/

17 compounds from above, sorted by length of the SMILES, ascending:
SMILES	Ecoli growth	UCH37 inh	HNF4A DNA FP
O=C(NN=Cc1ccco1)C1CCCC1	0.66	-0.6	/
C(=Nn1cnnc1)c1cccn1-c1ccccc1	0.63	6.0	/
CN1CCN(N=Cc2ccc(-c3ccccc3)cc2)CC1	0.65	3.6	/
COCCn1c(C)cc(C=NNC(=O)c2cccnc2)c1C	0.65	9.2	/
O=C1CSC(=NN=Cc2ccccc2)N1c1ccc(O)cc1	0.67	3.9	/
COc1ccc(C(=NO)C(=NO)c2ccc(OC)cc2)cc1	0.7	2.5	/
O=C(Cc1ccccc1)NN=Cc1cccc([N+](=O)[O-])c1	0.7	0.9	/
COc1ccc(OC)c(C=NN2CCN(c3ccc(Cl)cc3)CC2)c1	0.69	2.3	/
COc1ccc(C(C)=N/N=C2/NC(=O)CC(C(=O)O)S2)cc1 (stereo not given)	0.7	7.6	/
CCCc1c(C(=O)NN=C(C)CCc2ccccc2)nnn1-c1nonc1N	0.7	4.7	/
CCCC1SC(=NN=Cc2ccc(C)cc2)N(Cc2ccc(OC)cc2)C1=O (stereo not given)	0.71	-0.3	/
Cc1[nH]n(-c2ccccc2)c(=O)c1C=Nn1c(C)nc2ccccc2c1=O	0.68	4.5	/
Cc1ccc(C=NNC(=O)c2cccc(S(=O)(=O)Nc3ccccc3Cl)c2)s1	0.62	5.0	/
Cc1ccc(OCC(=O)NN=Cc2c(C)n(C)c3ccccc23)c([N+](=O)[O-])c1	0.71	3.3	/
COC(=O)C(C(C)=O)C1=CC(=NS(=O)(=O)c2ccc(C)cc2)c2ccccc2C1=O (stereo not given)	0.72	0.0	/
CCN(CC)Cc1c(C(=O)NN=Cc2cccc(OCc3ccc(F)cc3)c2)nnn1-c1nonc1N	0.7	2.2	/
CCCCCCN(C(=O)CCCCCN1C(=O)NC(c2ccc(-c3ccccc3)cc2)C(C(=O)OCc2ccccc2)=C1C)C(C(=O)NCCCC)c1ccc(-c2ccccc2)cc1 (stereo not given)	0.72	2.7	/
